Screening results: PubChem BioAssay, National Center for Advancing Translational Sciences (NCATS)
VDR inhibitor: vitamin D3 receptor (human) inhibition. 400,000 compounds, 0.93% hits. P11473. VDR-SRC2-3 peptide fluorescence polarization, 2 h. Potency, µM, inactives show max response, negative = inhibition, actives largely listed as inhibitors; active = well fitted inhibition curve with a large enough effect; inconclusive = small, poorly fitted or top-dose-only effect, or another doubt; inactive = no such curve, though single readings can be large or run the other way; note: series mostly up to about 120 µM
Target sequence (P11473 whole entry, looked up): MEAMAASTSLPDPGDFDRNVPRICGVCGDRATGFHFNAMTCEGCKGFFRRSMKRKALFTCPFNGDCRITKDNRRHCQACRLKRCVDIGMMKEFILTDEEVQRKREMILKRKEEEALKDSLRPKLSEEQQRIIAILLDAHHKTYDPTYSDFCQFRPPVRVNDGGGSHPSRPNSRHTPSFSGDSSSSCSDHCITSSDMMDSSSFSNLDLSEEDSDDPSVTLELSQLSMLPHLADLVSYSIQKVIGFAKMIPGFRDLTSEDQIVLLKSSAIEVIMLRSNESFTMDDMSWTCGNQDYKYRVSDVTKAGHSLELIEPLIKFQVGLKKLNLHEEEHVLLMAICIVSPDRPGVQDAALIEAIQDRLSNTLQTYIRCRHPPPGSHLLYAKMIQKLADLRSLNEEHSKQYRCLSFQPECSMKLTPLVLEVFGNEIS
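Signal is fluorescence polarization, reporting how far test compounds block the interaction of VDR with the SRC2-3 coregulator peptide after a 2 h room-temperature incubation.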
Starred values were filed as active, the others as inactive; & = joins results of further samples; [ ] = dose if it differs, or a comment. % is set by controls: 0 for no effect and ±100 for the full control effect; potency is the fitted concentration of half-maximal effect. The list is partial; the hit share may differ from the screen's.

Screening Cc1cc2cc(C(c3nnnn3C(C)(C)C)N(Cc3ccco3)CC3CCCO3)c(=O)[nH]c2cc1C (centres undefined) returned VDR inhibitor 7.1%.
CCC(C)Sc1nc2c(cnn2-c2ccccc2)c(=O)[nH]1 (centres undefined) was read as VDR inhibitor 4.4%.
For O=C(NCCCN1CCCC1=O)c1ccc2c(c1)NC(=O)c1ccccc1S2 the results were VDR inhibitor -5.5%.
`CCn1c(C)cc(/C=C2/NC(=O)N(CC(=O)Nc3cccc(C)c3)C2=O)c1C` gave VDR inhibitor -5.1%.
`COc1ccc(OC(=O)c2cccnc2)cc1` gave VDR inhibitor 4.6%.
CCCCCNC(=O)C(C)NS(=O)(=O)c1ccc(OC)cc1 (centres undefined) was read as VDR inhibitor 4.6%.
`COCCNC(=O)C1CCCN(c2ncccn2)C1` (centres undefined) gave VDR inhibitor -0.5%.
Cc1c(C(=O)OCC(=O)NCCN2C(=O)CSC2=O)oc2c1ccc1ccccc12 was read as VDR inhibitor 5.5%.
For COC(C)(C)[C@]12CC(O)(c3ccccc3)ON1[C@H]1CCCCC1N2O (some centres undefined) the results were VDR inhibitor 13.9%.
For CC(C)=CC(=O)Nc1nnc(C)s1 the results were VDR inhibitor -9.4%.
CCCC[C@@H]1CNC(=S)N1CCC12CC3CC(CC(C3)C1)C2 was read as VDR inhibitor inconclusive.
Cc1ccc(S(N)(=O)=O)cc1NC(=O)C(c1ccccc1)c1ccccc1 was read as VDR inhibitor -2.0%.

Continued; it opens with the 2 that closed the last part.
CCCC[C@@H]1CNC(=S)N1CCC12CC3CC(CC(C3)C1)C2 was read as VDR inhibitor inconclusive.
Cc1ccc(S(N)(=O)=O)cc1NC(=O)C(c1ccccc1)c1ccccc1 was read as VDR inhibitor -2.0%.
CC(NC(=O)CN(c1ccc(Cl)cc1)S(C)(=O)=O)c1ccccc1 (centres undefined) was read as VDR inhibitor -16.5%.
COc1ccccc1CNC(=O)CN1C(=O)C(C)N(c2ccc(C)cc2)C1=O (centres undefined) was read as VDR inhibitor -3.7%.
COc1cccc(NC(=O)CSc2nnc(-c3ccco3)c(-c3ccco3)n2)c1 was read as VDR inhibitor 89.1µM*.
Screening Cc1ccc(C(O)P(=O)(OCc2ccccc2)c2ccc(N(C)C)cc2)cc1 (centres undefined) returned VDR inhibitor -2.3%.
For CCOC(=O)N1CCN(C(=O)Nc2ccc(NC(=O)N3CCN(C(=O)OCC)CC3)cc2)CC1 the results were VDR inhibitor 7.7%.
For Cc1ccc(S(=O)(=O)N(C)C)cc1NC(=O)c1sccc1Cl the results were VDR inhibitor -16.9%.
For COc1cc(C(=O)N[C@H](C(=O)NC2CCCc3ccccc32)C(C)C)cc(OC)c1OC (some centres undefined) the results were VDR inhibitor -4.0%.
For CCCN1CCN(C(=O)Cn2c(-c3cccs3)cc3ccccc32)CC1 the results were VDR inhibitor 18.0%.
CSCCC(NC(=O)c1ccco1)C(=O)NCC1CCCO1 (centres undefined) was read as VDR inhibitor -14.6%.
`Cc1cccc(S(=O)(=O)c2c(C)cc(C)nc2Cl)c1` gave VDR inhibitor 8.8%.
Screening COc1ccc(CNc2nc(-c3ccc(N(C)C)cc3)nc3ccccc23)c(OC)c1 returned VDR inhibitor 35.5µM*.
COc1ccc(S(=O)(=O)N2CCC(c3ccncc3)CC2)cc1OC was read as VDR inhibitor -0.9%.
For CC(=O)c1ccc(S(=O)(=O)NCCCC(=O)NCCc2ccccn2)cc1 the results were VDR inhibitor 18.2%.
Cc1c(C(=O)NNC(=S)NCc2ccc(Cl)cc2)oc2ccccc12 was read as VDR inhibitor 13.5%.
Screening COc1ccc(CCN2C(=O)NC(NC(C)=O)(C(F)(F)F)C2=O)cc1OC (centres undefined) returned VDR inhibitor -11.2%.
`COc1ccc(C2NC(=O)C(C#N)=C(S)N2c2cccc(C)c2)cc1OC` (centres undefined) gave VDR inhibitor inconclusive.
Screening COc1ccc2nc(C)cc(SCC(NC(C)=O)C(=O)OC(C)C)c2c1 (centres undefined) returned VDR inhibitor -20.0%.
COc1ccc(C2C(C)C(=O)C(C)C(c3ccc(OC)cc3)N2N=O)cc1 (centres undefined) was read as VDR inhibitor -5.6%.
`CN(Cc1ccccc1)c1ncnc2c1nnn2C` gave VDR inhibitor 4.8%.
`COc1ccccc1N1CCN(CC(O)COc2c(OC)cccc2OC)CC1` (centres undefined) gave VDR inhibitor -15.2%.
Screening CCNC(=S)NNC(=O)c1csc(C)c1 returned VDR inhibitor -15.7%.
CCCc1nc2sc3ccccc3c(=O)c2c(=O)n1Cc1ccco1 was read as VDR inhibitor 29.7%.
CC(C)Cn1c(CCC(=O)O)ccc1-c1cccs1 was read as VDR inhibitor -3.6%.
`CCc1cc2c(cc3c(=O)n(CC(=O)NC4CCC(C)CC4)nc(CC)n32)s1` (centres undefined) gave VDR inhibitor 4.5%.
`CC(C)CNC(=S)NC(=O)c1ccc(F)cc1` gave VDR inhibitor -11.6%.
`Oc1c(C=C2N=c3ccccc3=N2)sc(=S)n1C1CCCC1` gave VDR inhibitor -6.9%.
For CN(C)c1ccc(/C=C/C=C2/SC(=S)N(c3ccccc3)C2=O)cc1 the results were VDR inhibitor 41.9%[activator].
Screening COCCCN1C(=O)C(=O)/C(=C(/O)c2ccc(OC(C)C)cc2)C1c1ccc(O)c(OC)c1 (centres undefined) returned VDR inhibitor -5.1%.
CN(CC(=O)NC1CCCCCC1)S(=O)(=O)c1ccccc1 was read as VDR inhibitor 8.7%.
For CCC1(c2ccccc2)NC(=O)N(CC(=O)NCc2ccncc2)C1=O (centres undefined) the results were VDR inhibitor -8.2%.
Screening COc1ccc(/C=C2\N=C(c3ccccc3)N(c3ccc(C(=O)O)cc3)C2=O)cc1OC returned VDR inhibitor -121.8%.
For CCCN(CCC)C(=O)CSc1nc2ccccc2c(=O)n1Cc1ccco1 the results were VDR inhibitor 5.4%.
`Cc1cccc(NC(=O)CN2C(=O)NC(C)(c3ccc4ccccc4c3)C2=O)n1` (centres undefined) gave VDR inhibitor -1.7%.
`CCC(c1nnc(SCC(=O)NC2CCCCC2)n1Cc1ccccc1)N(C)C` (centres undefined) gave VDR inhibitor 5.3%.
Screening COCCNC(=O)C(c1ccc(C)cc1)N(C(=O)CCC(=O)Nc1ccccn1)C1CCCCC1 (centres undefined) returned VDR inhibitor -2.9%.
Screening CCc1ccc(N2C(=O)Nc3ccccc3C2(O)C(=O)N2CCN(c3ccccn3)CC2)cc1 (centres undefined) returned VDR inhibitor -14.4%.
O=C(CO)N/N=C/c1ccc(Cl)cc1 was read as VDR inhibitor 1.3%.
CCOC(=O)c1nnn(-c2nonc2N)c1CN(C)Cc1ccccc1 was read as VDR inhibitor -13.6%.
Screening CC(=O)c1cccc(NC(=O)COc2ccccc2C(=O)c2cc(C#N)c(=O)n(C3CCCCC3)c2)c1 returned VDR inhibitor -17.1%.
For CC1(C)O[C@@H]2C[C@H]3[C@@H]4C[C@H](F)C5=CC(=O)CC[C@]5(C)[C@H]4[C@@H](O)C[C@]3(C)[C@]2(C(=O)CO)O1 the results were VDR inhibitor -7.9%.
Screening CC(C)Cn1c(-c2ccc(Br)cc2)c[nH]c1=S returned VDR inhibitor inconclusive.
For CC(C)CC(=O)Nc1cccc(NC(=O)CC(C)C)n1 the results were VDR inhibitor -23.4%.
Screening COc1cccc(OCC(=O)Nc2cc(Cl)ccc2Oc2ccccc2)c1 returned VDR inhibitor 10.2%.
COc1ccc2c(c1)C=C(CN1CCN(C3CCCC3)C(CCO)C1)CO2 (centres undefined) was read as VDR inhibitor 17.3%.
CC(CNCC1CCCO1)COc1cccc2ccccc12 (centres undefined) was read as VDR inhibitor 3.7%.
For C=C(C)COc1ccc(-c2nc(N)nc(C)c2-c2ccc(OC)cc2)c(O)c1 the results were VDR inhibitor 5.5%.
`COc1ccc(-n2c(N)c(C(=O)NCc3ccco3)c3nc4ccccc4nc32)c(OC)c1` gave VDR inhibitor 1.1%.
`C#CCOCCOCCOCCNc1nc(N2CCOCC2)nc(N2CCN(C(=O)[C@H](CO)n3cc([C@@H](N)C(C)C)nn3)CC2)n1` gave VDR inhibitor -5.7%.

Structures from the list above that contain fluorine:
Screening COc1ccc(CCN2C(=O)NC(NC(C)=O)(C(F)(F)F)C2=O)cc1OC (centres undefined) returned VDR inhibitor -11.2%.
`CC(C)CNC(=S)NC(=O)c1ccc(F)cc1` gave VDR inhibitor -11.6%.
For CC1(C)O[C@@H]2C[C@H]3[C@@H]4C[C@H](F)C5=CC(=O)CC[C@]5(C)[C@H]4[C@@H](O)C[C@]3(C)[C@]2(C(=O)CO)O1 the results were VDR inhibitor -7.9%.

The list continues:
O=C(Nc1ccc(Oc2ccccc2)cc1)C1CC1 was read as VDR inhibitor -25.3%.
Screening O=C(Nc1ccc(N2CCOCC2)c(Cl)c1)c1ccc(Br)o1 returned VDR inhibitor 5.0%.
`Cc1ccc(CNC(=O)CCNS(=O)(=O)c2ccc3c(c2)CCCC(=O)N3)cc1` gave VDR inhibitor 17.4%.
CCOC(=O)c1cnc(SC)nc1N was read as VDR inhibitor 7.0%.
Screening O=C(NCC(c1ccco1)S(=O)(=O)c1cccs1)c1c(F)cccc1F (centres undefined) returned VDR inhibitor -8.1%.
`c1ccc(-c2c[n+]3c(n2-c2ccccc2)CCC3)cc1` gave VDR inhibitor -21.9%.
O=C(COc1ccccc1)NCC(=O)N/N=C/C=C/c1ccccc1 was read as VDR inhibitor -18.1%.
`N#Cc1nc(COc2ccc(F)cc2)oc1NCCCn1ccnc1` gave VDR inhibitor -2.1%.
Screening C=CCn1nc([N+](=O)[O-])nc1Sc1cccc2cccnc12 returned VDR inhibitor inconclusive.
`NC(=O)CC(NC(=O)c1cccc(Br)c1)c1ccc(N2CCC(Br)CC2)c([N+](=O)[O-])c1` (centres undefined) gave VDR inhibitor -7.2%.
For CCOC(=O)c1cc2sccc2n1CC(=O)N1CCCC1 the results were VDR inhibitor -1.3%.
Screening O=C(N1CCCCC1)N1CCN(C(c2ccccc2)c2ccccc2)CC1 returned VDR inhibitor -7.2%.
Screening CCOC(=O)c1cc(OC(=O)c2ccccc2Br)n(-c2ccccc2)n1 returned VDR inhibitor -9.9%.
`C=Cn1cc[n+](CC(=O)C(C)(C)C)c1` gave VDR inhibitor -7.9%.
Screening COCC1CCCCN1C(=O)c1ccc2nc(Cc3ccc(OC)c(OC)c3)oc2c1 (centres undefined) returned VDR inhibitor -4.9%.
For COc1ccccc1C1(O)C(=O)Nc2ccccc21 (centres undefined) the results were VDR inhibitor -16.0%.
O=C(c1c(O)c2ccccc2oc1=O)C1CCCCC1 was read as VDR inhibitor 8.4%.
For O=C(NC1CCCc2ccccc21)c1cccc(S(=O)(=O)N2CCOCC2)c1 (centres undefined) the results were VDR inhibitor -3.8%.
For CCOC(=O)Cc1nn(CCc2ccccn2)c(=O)c2ccccc12 the results were VDR inhibitor -8.4%.
Cc1ccc(O)c(C2=Nc3ccccc3N=C(c3cccs3)C2)c1 was read as VDR inhibitor 1.8%.
`COc1cc(-c2cc(C(=O)N3CCN(c4ccccn4)CC3)c3ccccc3n2)cc(OC)c1OC` gave VDR inhibitor -1.7%.
CCOC(=O)N1CCN(c2ccccc2OC)CC1 was read as VDR inhibitor -27.8%.
`CCc1nnc(NS(=O)(=O)c2ccc(NC(=S)NC(=O)/C=C/c3ccc(OC)cc3)cc2)s1` gave VDR inhibitor 1.3%.
CCC(Sc1n[nH]c(=O)[nH]c1=O)C(=O)OCc1ccccc1 (centres undefined) was read as VDR inhibitor 10.5%.
`CC(c1n[nH]c(=S)n1Cc1ccccc1)N(C)C` (centres undefined) gave VDR inhibitor inconclusive.
CCc1ccc(NC(=O)C2=CC(c3cccs3)=NS(=O)(=O)N2C)cc1 was read as VDR inhibitor 18.0%&15.6%.
COc1cc(S(=O)(=O)NCCCn2ccnc2)ccc1Cl was read as VDR inhibitor -4.7%.
COc1ccc(OC)c(NC(=O)C(=S)NC2CCCCC2)c1 was read as VDR inhibitor 0.4%.
For CCOC(=O)C1(C(F)(F)F)N=C(C(F)(F)F)Nc2ccccc21 (centres undefined) the results were VDR inhibitor 0.6%.
`CCCC(C(=O)O)N1C(=O)/C(=C/c2cccn2C)SC1=S` (centres undefined) gave VDR inhibitor -15.7%.
`Cc1ccc(CN2CCC(n3nccc3NC(=O)CCCc3ccccc3)CC2)o1` gave VDR inhibitor inconclusive.
CC(C)CN(C(=O)COC(=O)c1cccn1C)c1c(N)n(Cc2ccccc2)c(=O)[nH]c1=O was read as VDR inhibitor -18.4%.
Screening C=CCS(=O)(=O)N1CCCC(Cc2ccccc2C)(C(=O)OCC)C1 (centres undefined) returned VDR inhibitor 3.9%.
`CC(C)OCCCNC(=O)C(=O)Nc1ccc2nc3n(c(=O)c2c1)CCCCC3` gave VDR inhibitor 15.7%.
Screening CCCN(CCC)c1ncnc2nc[nH]c12 returned VDR inhibitor 3.5%.
For C/C(Cn1cnc([N+](=O)[O-])n1)=N/NC(=O)COc1c(Cl)cc(Cl)cc1Cl the results were VDR inhibitor -0.1%.
Screening COC(=O)c1cn(N(C)c2ncc(C(F)(F)F)cc2Cl)c(=O)c2ccccc12 returned VDR inhibitor -4.6%.
COc1cc(NC(=S)NCCc2c[nH]c3ccccc23)c(OC)cc1Cl was read as VDR inhibitor -0.7%.
Cc1ccc(F)c(NC(=O)CCc2ccccc2)c1 was read as VDR inhibitor 3.6%.
Screening O=c1cc(CCl)nc2scc(-c3ccccc3)n12 returned VDR inhibitor -10.3%.
For COc1cc(CNc2nc3c(C)cc(C)cc3s2)ccc1O the results were VDR inhibitor 0.8%.
CCN(CC(=O)Nc1c(F)cccc1F)C(=O)CSc1ccccc1 was read as VDR inhibitor -20.1%.
Screening CC(C(=O)Nc1ccccc1-c1ccccc1)N(C)Cc1nc2ccccc2c(=O)[nH]1 (centres undefined) returned VDR inhibitor inconclusive.

Three entries already listed, arranged by SMILES length, falling:
COc1cc(NC(=S)NCCc2c[nH]c3ccccc23)c(OC)cc1Cl was read as VDR inhibitor -0.7%.
For COc1cc(CNc2nc3c(C)cc(C)cc3s2)ccc1O the results were VDR inhibitor 0.8%.
Screening O=c1cc(CCl)nc2scc(-c3ccccc3)n12 returned VDR inhibitor -10.3%.
